Source: PubChem BioAssay
Mtb hypoxia inh = PubChem AID 1159583 | fluorescence inhibition, % (no concentration beside the values) | 300,000 tested, 0.1% active | M. tuberculosis hypoxia-regulated fluorescent reporter, fluorescence;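 active = 35 to 45% if threefold the growth effect, above 45% if 1.5-fold the growth effect; inactive = the rest, general growth blockers included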;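 also: wells of about 50 µL received 100 nL stock; 0% = vehicle wells and 100% = reference inhibitor wells; whole bacteria with a GFP reporter of the hypoxia response; strong numbers were not always called active; many hits fall short of the cut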
Autofluor counter = compound fluorescence in toxin protease inhibitor counterscreen. compound autofluorescence counterscreen, microsphere flow cytometry; hits give high values. fluorescence intensity (no concentration beside the values). 360,000 tested, 3.1% active. AID 624483;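 active = at least 3 SD above the mean of all compounds, about 16000 in these data; inconclusive = too few beads counted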;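 also: 100 nL of 1 mM stock went into each well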
PrP UTR inh = inhibition of PrP 5' UTR reporter expression; inhibition, % (concentration not given with the values); cell-based PrP 5' UTR mRNA reporter, plate reader; 340,000 tested, 0.35% active;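 active = every replicate at 50% or more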;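 also: 0 = median of the neutral control wells; tested in H4 reporter cells; numbers are from one replicate; inactives centre near -14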
RN4220 kill = growth inhibition of S. aureus RN4220, primary screen, OD600; 330,000 tested, 0.33% active; AID 1259311, 2017; 16 h; inhibition, % (concentration not given with the values);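 active = z-score of -3 or lower and OD600 up to 0.18 on both plates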;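 also: plate controls were untreated cells for no effect and reference antibiotic for full effect; stock transfer was 100 nL into about 80 µL; one replicate is shown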
Sa ugtP lethal = growth inhibition of ugtP-null S. aureus, primary screen, RN4220 ugtP deletion, OD600 | 16 h; some inactives read as strong as hits | growth inhibition, % (concentration not given with the values) | 330,000 tested, 0.54% active | AID 1259309, 2017;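 active = z-score under -3 and OD600 up to 0.15 on both plates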;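 also: plate controls were untreated wells for no effect and antibiotic for full effect; wells of about 80 µL received 100 nL stock; the first replicate is given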
BJeLR lethal = MLPCN primary cell-based screen for lethality selective to Ras in HRASV12 cells. BJeLR (HRASV12) viability, CellTiter-Glo ATP luminescence, 48 h; reference of the scale not given here. inhibition, % (test concentration not listed). 300,000 tested, 0.17% active;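 active = replicate mean above 50%; inconclusive = above 50% but judged a plate artefact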;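 also: 50 nL library stock added to about 25 µL; numbers are from one replicate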
Mtb hypoxia inh growth = recorded beside Mtb hypoxia inh, whose call it bears; growth inhibition, %; measured here: M. tuberculosis growth (absorbance);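 0% = vehicle and 100% = reference antibiotic; read after six days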
* = called active by the depositor; u = inconclusive; x = not tested or not shown. Not a hit list; overall some 4% were active at least once.

smiles	BJeLR lethal	Sa ugtP lethal	RN4220 kill	PrP UTR inh	Mtb hypoxia inh growth	Autofluor counter	Mtb hypoxia inh
COc1cc(NC(=S)NCCc2ccc(S(N)(=O)=O)cc2)c(OC)cc1Cl	-6	4	5.5	-4	5	5209	11
CC(C)(C)c1ccc(OCCn2ccccc2=O)cc1	4	12	6.1	-75	3	6507	8
CCc1ccc(C(=O)Cc2cc3cccc(OC)c3oc2=O)cc1	-9	9	4.6	-16	-2	3062	0
Cn1nc(C(C)(C)C)cc1C(=O)NNC(=O)c1cccc(Cl)c1	3	1	7.8	-28	8	3276	13
O=C(NC1CCN(C(=O)Nc2cccc(Cl)c2)CC1)C1CCCCC1	2	-3	-3.2	4	-2	3246	-3
CCOC(=O)N1CCN(C(=O)c2ccc(SC)cc2OC)CC1	6	6	3.4	-37	8	5906	20
COc1ccc(Cc2c(O)nc(SC)n(C(C)=O)c2=O)cc1	3	5	-4.9	-21	3	3165	-2
Cc1ccc(-c2nn(-c3ccccn3)c(=O)c3ccccc23)cc1	-3	13	8.2	9	4	3511	7
CC1Cc2cc(/C(O)=C3/C(=O)C(=O)N(CCCn4ccnc4)C3c3ccncc3)ccc2O1 (stereo not drawn)	5	3	1.6	-14	7	10038	-8
O=C(Nc1nnc(SCc2c(Cl)cccc2Cl)s1)C1CCCO1 (stereo not drawn)	9	0	15	x	6	9323	4

Some of the entries above in another layout.
Values run as follows: BJeLR lethal | Sa ugtP lethal | RN4220 kill | PrP UTR inh | Mtb hypoxia inh growth | Autofluor counter | Mtb hypoxia inh
COc1cc(NC(=S)NCCc2ccc(S(N)(=O)=O)cc2)c(OC)cc1Cl
→ -6 | 4 | 5.5 | -4 | 5 | 5209 | 11
CC(C)(C)c1ccc(OCCn2ccccc2=O)cc1
→ 4 | 12 | 6.1 | -75 | 3 | 6507 | 8
CCc1ccc(C(=O)Cc2cc3cccc(OC)c3oc2=O)cc1
→ -9 | 9 | 4.6 | -16 | -2 | 3062 | 0
Cn1nc(C(C)(C)C)cc1C(=O)NNC(=O)c1cccc(Cl)c1
→ 3 | 1 | 7.8 | -28 | 8 | 3276 | 13
O=C(NC1CCN(C(=O)Nc2cccc(Cl)c2)CC1)C1CCCCC1
→ 2 | -3 | -3.2 | 4 | -2 | 3246 | -3
CCOC(=O)N1CCN(C(=O)c2ccc(SC)cc2OC)CC1
→ 6 | 6 | 3.4 | -37 | 8 | 5906 | 20
COc1ccc(Cc2c(O)nc(SC)n(C(C)=O)c2=O)cc1
→ 3 | 5 | -4.9 | -21 | 3 | 3165 | -2
Cc1ccc(-c2nn(-c3ccccn3)c(=O)c3ccccc23)cc1
→ -3 | 13 | 8.2 | 9 | 4 | 3511 | 7
CC1Cc2cc(/C(O)=C3/C(=O)C(=O)N(CCCn4ccnc4)C3c3ccncc3)ccc2O1 (stereo not drawn)
→ 5 | 3 | 1.6 | -14 | 7 | 10038 | -8
O=C(Nc1nnc(SCc2c(Cl)cccc2Cl)s1)C1CCCO1 (stereo not drawn)
→ 9 | 0 | 15 | x | 6 | 9323 | 4

New compounds follow:
smiles	BJeLR lethal	Sa ugtP lethal	RN4220 kill	PrP UTR inh	Mtb hypoxia inh growth	Autofluor counter	Mtb hypoxia inh
COc1ccc(C(=O)/C=C/c2ccc(OCc3ccccc3)cc2)cc1CSCC(=O)O	-6	16	29	0	-1	4410	11
COC(=O)c1cc(COc2ccc3c4c(c(=O)oc3c2)CCCC4)c(C)o1	4	1	3.2	-37	5	9343	6
COc1ccc(NC(=O)CN2C(=O)NC(C)(c3ccc(C)cc3)C2=O)c([N+](=O)[O-])c1 (stereo not drawn)	-7	1	-0.6	-82	-15	6583	-9
COc1ccc(-c2ccnc(SCC(=O)c3ccc(Br)cc3)n2)cc1	-4	-8	2.6	-6	8	2137	0
CCC(C(=O)OCC(=O)Nc1c(C)n(C)n(-c2ccccc2)c1=O)c1ccccc1 (stereo not drawn)	-9	1	2.5	-4	-4	6654	-14
CCCn1c(SCC(=O)N2CC(=O)Nc3ccccc32)n[nH]c1=O	x	-1	2.4	2	8	3729	5
O=C(NCc1ccccc1)NC1CC2CCC(C1)N2Cc1ccco1 (stereo not drawn)	-21	-1	4.6	-10	16	4086	6
Clc1ccc(CN2CCC(c3nc4ccc(Cl)cc4[nH]3)CC2)cc1	2	-18	-3.7	-21	9	12646	22
COCC(=O)Nc1cc(C(=O)OC)cc(C(=O)OC)c1	-3	1	0.9	-19	-3	1918	9
COc1ccc(C2c3c(ncn(CCN4CCOCC4)c3=N)Oc3ccc4ccccc4c32)cc1 (stereo not drawn)	-6	-34	10.0	-1	6	x	11

Other structures follow:
smiles	BJeLR lethal	Sa ugtP lethal	RN4220 kill	PrP UTR inh	Mtb hypoxia inh growth	Autofluor counter	Mtb hypoxia inh
COC(=O)Cc1ccc(NC(=S)N2CCCCC2C)cc1 (stereo not drawn)	5	-3	11	-43	-2	4219	-5
O=C(c1cncc(Br)c1)N1CCN(S(=O)(=O)c2ccc3ccccc3c2)CC1	x	5	5.4	-16	0	u	3
CCN(CC)C(=O)CSc1nnc2nnc3cc(Cl)ccc3n12	-3	10	4.3	-27	x	3660	x
COc1ccccc1NC(=O)Cn1nnc(C(=O)Nc2ccccc2)c1N	-2	5	5.3	-7	9	3147	4
O=C(CN1CCCCCC1)NCCc1ccc(F)cc1	x	10	2.6	-17	3	4436	15
CCCCN1CC(O)=C(c2nc3ccccc3[nH]2)C1=N	2	-4	-2.2	-44	-13	4254	-5
O=C(c1ccc(Cl)c(NC2=NC3CS(=O)(=O)CC3S2)c1)N1CCN(c2ccccc2)CC1 (stereo not drawn)	-4	2	0.8	1	1	4410	-5
C/C(=N/NC(=O)c1cccs1)c1cccc(NC(=O)C2CC2)c1	6	x	x	-18	x	4593	x
O=C(CN(Cc1ccco1)C(=O)CNS(=O)(=O)c1ccc(Cl)cc1)NCc1ccco1	-5	-1	1.3	2	10	5470	-6
COc1ccc(Nc2nc(-c3cccc([N+](=O)[O-])c3)nc3ccccc23)cc1	14	26	-7.6	5	4	2039	4

(next part)
smiles	BJeLR lethal	Sa ugtP lethal	RN4220 kill	PrP UTR inh	Mtb hypoxia inh growth	Autofluor counter	Mtb hypoxia inh
CN(C)c1ccc(-c2ccc([C@H]3[C@@H]4C=CCC[C@@]4(C)C(=O)N3Cc3ccccc3)c(F)c2)cc1	2	x	x	-8	x	4116	x
CC(C)N(Cc1ccccc1)S(=O)(=O)c1ccc(Cl)nc1	6	-4	-0.2	-1	15	6397	2
O=C(Cn1nnc2ccccc21)NNC(=S)NC1CCCCC1	-15	-6	-1.7	-5	12	4332	-7
CC1=C(C(=O)OCC(Br)(Br)Br)C(c2cccc([N+](=O)[O-])c2)NC(=O)N1CCCC(=O)O (stereo not drawn)	-5	16	3.7	-23	0	2935	10
CCOc1ccc(C2/C(=C(\O)c3ccc4c(c3)OCCO4)C(=O)C(=O)N2CCCn2ccnc2)cc1OC (stereo not drawn)	12	10	5.6	-18	0	6394	7
Cc1[nH]c2ccc(C(=O)N3CCN(c4ccc(F)cc4)CC3)cc2c1C	4	-4	-1.7	12	5	4506	2
CCOC(=O)C1CCN(C(=O)c2[nH]c3ccc(OC)cc3c2C)CC1	-11	5	3.5	-8	-2	4145	3
COc1ccc(C=C(C#N)C(=O)C(C)(C)n2cncn2)cc1	x	4	7.0	x	1	x	6
CC(=O)c1ccc(N(CC(=O)NC2CCCC2)C(=O)CNC(=O)c2ccco2)cc1	-7	2	1.4	-31	-1	5580	-5
CCCCCCCSc1ncnc2[nH]ncc12	x	35	11	-35	8	3794	19

(continued)
smiles	BJeLR lethal	Sa ugtP lethal	RN4220 kill	PrP UTR inh	Mtb hypoxia inh growth	Autofluor counter	Mtb hypoxia inh
CCN1CCc2c(C#N)c(N3CCOCC3)nc(NCc3ccccc3)c2C1	2	x	x	-4	x	4809	x
CN1CCN(c2ccc([N+](=O)[O-])cc2C(=O)c2ccccc2)CC1	3	1	3.7	-8	5	2392	11
Cc1ccnc(NC(=O)c2cccc(S(=O)(=O)N3CCN(c4ccc(F)cc4)CC3)c2)c1	0	9	4.6	-7	0	4345	3
Cc1c(Br)cc(C(=O)N2CCCCCC2)c(C)c1C	-8	-2	4.6	-9	x	4205	x
COc1cccc(NC(=O)Cc2cn(C)c3ccccc23)c1	-2	-7	1.5	-1	x	2321	x
Nc1ccc(-c2nc3c(Cl)c(N)ccc3[nH]2)cc1	-4	-6	-2.7	-4	-3	2698	3
COc1cc(NC(=O)COC(=O)CCCC2=NS(=O)(=O)c3ccccc3N2)cc(OC)c1	1	12	4.4	-21	11	4181	5
O=C(CN1CCN(c2ccccc2)CC1)Nc1ccncc1	10	3	1.8	5	4	3583	2
COc1ccc(-c2noc(CSc3nc(N)c(-c4ccccc4)c(=O)[nH]3)n2)cc1	-3	-1	-8.4	-18	2	9845	3
CN(C)c1ccc(-c2nnc(-c3cccnc3)o2)cc1	2	4	3.5	-58	8	4209	3

The listing continues:
smiles	BJeLR lethal	Sa ugtP lethal	RN4220 kill	PrP UTR inh	Mtb hypoxia inh growth	Autofluor counter	Mtb hypoxia inh
CC1CCCCN1S(=O)(=O)c1ccc2[nH]c(=O)cc(C(=O)NCCCN3CCCCCC3)c2c1 (stereo not drawn)	15	-1	3.1	-5	-5	4554	-5
Cc1cc(F)ccc1S(=O)(=O)Nc1ccccc1C(=O)NCc1ccccn1	-2	2	9.4	-17	-5	4451	21
Cn1c(SCC(=O)NC2CCCCC2)nnc1-c1cccc(N)c1	3	-5	-0.8	-9	x	2309	x
O=C(NC1CCCC1)C1CCN(S(=O)(=O)N2CCCCC2)CC1	-1	6	4.7	-31	1	8097	5
Cc1ccc(SCCN2CCC(NC(=O)OCc3ccccc3)CCC2=O)cc1 (stereo not drawn)	-16	-4	-12	-12	-3	3039	4
Cc1ccc(S(=O)(=O)Nc2ccc3c(c2)C(=O)N([C@H](C)CO)C[C@H](C)[C@@H](CN(C)Cc2ccccc2)O3)cc1	x	-1	-8.0	-24	14	4081	6
C=CCn1c(O)c(C(C)=NCCCn2ccnc2)c(=O)[nH]c1=O	0	11	1.3	-9	5	4374	14
CCOC(=O)c1ccc(N/C(=N\S(=O)(=O)c2ccccc2C)c2ccccc2)cc1	12	x	x	-10	x	2388	x
Cc1ccc(N2C(=O)N3C(c4ccc(Br)cc4)C4C(=O)N(C(C)(C)C)C(=O)C4[C@]3(C)C2=O)cc1 (stereo partly drawn)	x	4	5.3	x	4	x	1
O=C(NC1CCCCCC1)c1c(F)c(F)c(F)c(F)c1F	-3	0	-2.8	-10	x	3593	x

Continued:
smiles	BJeLR lethal	Sa ugtP lethal	RN4220 kill	PrP UTR inh	Mtb hypoxia inh growth	Autofluor counter	Mtb hypoxia inh
COc1ccc(-c2nc(CCl)cs2)cc1OC	-8	-1	4.4	3	1	3146	5
Nn1cnc2c(c1=O)C1(CCCCC1)Cc1ccccc1-2	4	0	0.7	-9	-9	2018	-5
Cc1cccc(C)c1NC(=O)C(NC(=O)c1ccccn1)c1ccc([N+](=O)[O-])cc1 (stereo not drawn)	14	-2	-3.8	-10	x	4688	x
C/C(=N\O)c1cc(Cl)cc(Cl)c1O	-10	x	x	-18	x	4650	x
CC1(C)CC(=O)C(C=Nc2ccc(O)cc2)=C(O)C1	2	0	3.6	-14	-3	10479	-1
